Screening data: PubChem, PCMD
CatS inh: blocks human cathepsin S protease activity. recombinant cathepsin S, AMC dipeptide fluorescence, pooled mixtures. inhibition, %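 (tested at 5 µM per compound within 10-compound mixtures)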. actives 0.06% (n = 62,000). AID 501; in the data active = inhibition above about 32%, passing the limit was not always enough;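 also: 0% = enzyme without compound and 100% = blank without enzyme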
Target sequence (P25774 115-331 limits assumed): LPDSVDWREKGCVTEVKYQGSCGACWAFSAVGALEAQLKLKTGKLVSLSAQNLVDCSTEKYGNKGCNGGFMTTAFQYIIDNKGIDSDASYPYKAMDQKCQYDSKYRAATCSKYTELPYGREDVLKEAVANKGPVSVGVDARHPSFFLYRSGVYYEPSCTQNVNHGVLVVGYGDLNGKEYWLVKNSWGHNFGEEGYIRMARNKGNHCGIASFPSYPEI
CatL block: blocks human cathepsin L protease activity | purified cathepsin L, fluorogenic substrate, fluorescence | inhibition, %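 (tested at 10 µM)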 | actives 0.17% (n = 58,000); in the data active = inhibition above about 45%;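 also: 0% = enzyme with no compound and 100% = no enzyme blank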
CatG inh: inhibitors of human cathepsin G; AID 581; inhibition, % at 5 µM (by protocol); purified enzyme, AMC-tetrapeptide fluorescence, pooled mixtures; P08311; actives 0.2% (n = 62,000);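 active = inhibition above 20% in each of the two mixture wells holding the compound; inactive = inhibition of 20% or less in either well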;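 also: 0% = enzyme control without mixture and 100% = blank lacking enzyme; strong numbers were not always called active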
Target sequence (P08311 21-244 limits assumed): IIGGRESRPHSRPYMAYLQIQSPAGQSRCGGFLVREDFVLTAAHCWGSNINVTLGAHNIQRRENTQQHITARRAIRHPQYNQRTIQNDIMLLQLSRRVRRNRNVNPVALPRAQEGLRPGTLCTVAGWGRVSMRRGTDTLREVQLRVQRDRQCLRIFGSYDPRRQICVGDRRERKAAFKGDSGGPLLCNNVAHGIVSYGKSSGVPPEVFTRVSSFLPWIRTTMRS
C1s inh: blocks human complement C1s protease activity | P09871 | purified C1s, fluorogenic AMC substrate, pooled mixtures | mean inhibition % of two 10-compound mixtures (active compounds read high), % at 5 µM (by protocol) | actives 0.16% (n = 62,000) | AID 538;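 active = inhibition above 20% in each of the two 10-compound mixture wells holding the compound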;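 also: 0% = enzyme wells lacking compound mixture and 100% = no-enzyme blank wells; some compounds called inactive have numbers as strong as hits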
FXIIa inh mix: inhibitors of human coagulation factor XIIa, pooled mixtures | P00748 | purified FXIIa, fluorogenic substrate | inhibition, % at 5 µM | actives 0.2% (n = 62,000) | AID 684;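 also: 0% = enzyme without compound and 100% = no enzyme blank; some results filed as inactive read as strong as hits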
FXIa inh mix: inhibitors of human coagulation factor XIa, pooled mixtures | P03951 | purified FXIa, fluorogenic substrate | actives 0.19% (n = 62,000) | inhibition, % at 5 µM | AID 680;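 also: each value is inhibition by a whole ten-compound pool holding the compound; 0% = enzyme with no mixture and 100% = wells lacking enzyme; strong numbers were not always called active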
Target sequence (P03951 19-387 limits assumed): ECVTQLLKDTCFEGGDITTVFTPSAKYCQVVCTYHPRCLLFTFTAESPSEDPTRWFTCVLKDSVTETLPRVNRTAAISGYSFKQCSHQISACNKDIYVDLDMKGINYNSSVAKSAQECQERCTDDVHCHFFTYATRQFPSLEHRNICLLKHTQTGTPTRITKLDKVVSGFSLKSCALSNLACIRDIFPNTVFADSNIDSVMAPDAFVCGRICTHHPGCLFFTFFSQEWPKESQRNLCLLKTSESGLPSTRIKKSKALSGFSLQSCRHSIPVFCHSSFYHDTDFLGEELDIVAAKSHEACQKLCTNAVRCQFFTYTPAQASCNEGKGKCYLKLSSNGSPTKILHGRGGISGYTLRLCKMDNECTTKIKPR
Target sequence (P03951 388-625 limits assumed): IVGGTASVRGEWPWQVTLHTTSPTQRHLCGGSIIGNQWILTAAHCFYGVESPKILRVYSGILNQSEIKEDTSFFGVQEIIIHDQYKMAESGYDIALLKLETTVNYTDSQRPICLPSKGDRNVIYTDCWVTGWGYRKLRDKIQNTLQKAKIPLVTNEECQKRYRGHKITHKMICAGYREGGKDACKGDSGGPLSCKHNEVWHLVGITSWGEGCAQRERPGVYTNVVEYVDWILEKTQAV
Starred values were filed as active, the others as inactive; nt = no result given. Rule as the data show it, unless noted: active = inhibition above about 20% (passing the limit was not always enough); inactive = the rest. Only part of the results is shown (hit frequency here may not be typical).

Every second line gives: CatS inh	CatL block	CatG inh	C1s inh	FXIIa inh mix	FXIa inh mix
#1 CC1CCc2c(sc3ncnc(SCC(=O)N4CCN(C(=O)c5ccco5)CC4)c23)C1 (centres undefined)
 : 1.9	4.9	3.0	-5.4	8.7	4.4
#2 O=C(CNC(=O)c1ccc(Cl)cc1)NCCCn1ccnc1
 : 10.8	10.1	4.3	-4.6	-7.1	1.8
#3 CC(C)Cc1cc(C(=O)Nc2sc3c(c2C#N)CCCC3)no1
 : -2.3	9.2	7.9	-2.0	7.1	4.3
#4 CCOc1ccccc1CN(Cc1ccco1)S(=O)(=O)c1ccc(-n2cnnn2)c(OC)c1
 : 5.2	5.0	1.3	0.5	-11.1	4.1
#5 COCCNc1nc2c(c(=O)n(C)c(=O)n2C)n1Cc1cccc(C(F)(F)F)c1
 : nt	-2.0	nt	nt	nt	nt
#6 O=C1CC(c2ccccc2)CC(O)=C1C=NCCCN1CCOCC1 (centres undefined)
 : -23.1	-1.3	-37.9	-107.8	3.0	-39.2
#7 CC1(C)CC(NC(=O)CC2CCCCC2)CC(C)(C)N1
 : -0.7	nt	7.9	4.9	-1.7	-3.4
#8 Cc1noc(C)c1S(=O)(=O)N(CC(=O)N1CCCC1)c1ccc(C(C)C)cc1
 : 10.9	nt	4.0	14.0	0.2	1.6
#9 COc1ccc(S(=O)(=O)N2CCC(C(=O)NCCC3=CCCCC3)CC2)cc1OC
 : -4.6	nt	-1.6	-0.2	12.6	3.0
#10 O=C(c1ccncc1)N1CCN(C(=O)c2cccs2)CC1
 : -2.9	3.2	6.1	11.7	2.8	5.4

Later entries:
Every second line gives: CatS inh	CatL block	CatG inh	C1s inh	FXIIa inh mix	FXIa inh mix
#11 CC1(C)CC(=O)C(C=NCCN2CCOCC2)=C(O)C1
 : -3.9	nt	-2.1	4.3	7.9	0.3
#12 CCn1nc(C)c(NC(=O)CCCSc2nc(-c3ccco3)cc(C(F)(F)F)n2)c1C
 : 14.1	16.7	-9.5	-14.2	2.6	2.0
#13 CCc1nc(N2CCN(c3nc(C)cc(C)n3)CC2)c2oc3ccccc3c2n1
 : 5.3	9.2	-10.0	-16.6	-0.4	-1.9
#14 COC(=O)c1nnn(-c2nc(N3CCCCC3)nc(N3CCCCC3)n2)c1C
 : 9.6	8.5	1.5	3.2	4.2	5.1
#15 O=C1Nc2c(c(=O)[nH]c(=O)n2-c2ccccc2)C1(Nc1ncccn1)C(F)(F)F (centres undefined)
 : 6.7	21.4	15.9	15.1	0.3	-0.9
#16 O=C1CC(c2cccc(Cl)c2)CC(O)=C1C=NCCCO (centres undefined)
 : -5.8	-1.0	4.3	2.9	1.7	7.8
#17 Cc1ccc(NC(=O)CC2Oc3ccccc3NC2=O)c(C)c1 (centres undefined)
 : -2.2	nt	-3.2	1.8	12.8	2.1
#18 O=S(=O)(c1ccccc1)N1CCN(c2cc(-c3ccccc3)nc3ncnn23)CC1
 : 0.5	-4.1	-13.5	-21.8	1.6	4.8
#19 FC(F)(F)c1cccc(CN2CCCCCC2)c1
 : 20.6	1.4	3.4	-7.4	11.7	4.0
#20 C#CCNc1nc(CC)nc2c1nnn2Cc1ccccc1F
 : 3.0	13.7	0.0	4.0	9.3	-3.1

(further entries)
Every second line gives: CatS inh	CatL block	CatG inh	C1s inh	FXIIa inh mix	FXIa inh mix
#21 COC(=O)C1C(O)=C(C=NCC(C)N=CC2=C(O)C(C(=O)OC)C(C)(C)CC2=O)C(=O)CC1(C)C (centres undefined)
 : 14.6	13.2	11.4	11.4	5.0	4.6
#22 CCOC(=O)c1sc(NC(=O)CSc2nc3c(cc2C#N)CCCCCC3)c(C#N)c1C
 : 11.2	-0.9	-5.7	-6.2	0.5	2.9
#23 Cc1ccc(Nc2ncccc2C(=O)O)cc1C
 : 9.8	-3.7	-14.1	-20.5	8.3	-3.6
#24 COc1ccc(OC)c(NC(=O)CSc2nc(N)c(-c3ccccc3)c(=O)[nH]2)c1
 : -1.0	-2.5	11.9	21.4	15.1	5.5
#25 CC1(C)CC(=O)C(C=NCC2CCCO2)=C(O)C1 (centres undefined)
 : 12.3	30.5	0.2	-1.5	0.4	10.8
#26 CCc1nc2oc3ccccc3c(=O)c2c(=O)n1-c1ccccc1
 : 15.8	-1.2	0.4	-3.7	-14.9	3.7
#27 Cc1ccc(-c2csc3nnc(SCC(=O)N4CCN(Cc5ccccc5)CC4)n23)cc1
 : -1.4	19.7	-0.9	2.9	1.0	-1.4
#28 CCNS(=O)(=O)c1ccc(NC(=O)c2cc(C(F)(F)F)nn2C)cc1
 : 15.1	7.9	-0.7	-1.6	-6.3	10.1
#29 CCOC(=O)C1CCCN(c2nc3ccccc3nc2C(C#N)C(=O)NCc2ccccc2)C1 (centres undefined)
 : 6.4	-0.7	-4.5	-7.3	2.7	-2.7
#30 Cn1c(=O)c2c(nc(NCCCO)n2Cc2cccc(C(F)(F)F)c2)n(C)c1=O
 : nt	-16.1	nt	nt	nt	nt

Continuation:
Every second line gives: CatS inh	CatL block	CatG inh	C1s inh	FXIIa inh mix	FXIa inh mix
#31 CC(C)OC(=O)c1cc(=O)[nH]c2ccccc12
 : -27.8	-4.0	-18.8	-63.9	1.3	-26.3
#32 CCCOc1ccc(/C(O)=C2/C(=O)C(=O)N(CCN(C)C)C2c2ccc(OC)c(OC)c2)cc1 (centres undefined)
 : nt	9.2	nt	nt	nt	nt
#33 CCOc1ccc(OCC)c(NC(=O)C2CCCN(c3ncccn3)C2)c1 (centres undefined)
 : 8.1	21.5	9.4	14.1	7.6	4.2
#34 CC(C)(C)NC(=O)CSc1ncnc2c1nnn2Cc1ccccc1Cl
 : 13.2	-0.2	-5.1	-49.9	3.6	-2.8
#35 Cc1nonc1NC(=O)CSc1nnc(-c2ccoc2C)n1CC(C)C
 : 5.7	12.7	0.8	-2.9	-0.4	-5.9
#36 CSCC[C@H](NC(=O)CCn1nnc2ccccc2c1=O)C(=O)O
 : -11.5	0.5	-1.7	-46.4	1.9	-7.5
#37 Nc1ccc2c(c1)C(=O)N(CCCC(=O)O)C2=O
 : 23.8	12.8	-0.2	-8.6	10.3	4.3
#38 COc1ccc(/C(O)=C2\C(=O)C(=O)N(CCN(C)C)C2c2cccc(OC)c2OC)cc1 (centres undefined)
 : -0.2	4.4	7.6	7.1	-8.8	7.3
#39 CC(=O)N1CCC(=O)N(C(C)C)c2ccccc21
 : 1.0	0.9	7.4	7.5	8.9	9.0
#40 CCn1c(SCC(=O)N(C(C)C)C(C)C)nnc1-c1cc2ccccc2cc1O
 : 14.1	9.7	12.4	12.9	0.5	2.1

Part of the list above in order of formula weight, low to high.
Every second line gives: CatS inh	CatL block	CatG inh	C1s inh	FXIIa inh mix	FXIa inh mix
#19 FC(F)(F)c1cccc(CN2CCCCCC2)c1
 : 20.6	1.4	3.4	-7.4	11.7	4.0
#26 CCc1nc2oc3ccccc3c(=O)c2c(=O)n1-c1ccccc1
 : 15.8	-1.2	0.4	-3.7	-14.9	3.7
#8 Cc1noc(C)c1S(=O)(=O)N(CC(=O)N1CCCC1)c1ccc(C(C)C)cc1
 : 10.9	nt	4.0	14.0	0.2	1.6
#18 O=S(=O)(c1ccccc1)N1CCN(c2cc(-c3ccccc3)nc3ncnn23)CC1
 : 0.5	-4.1	-13.5	-21.8	1.6	4.8
#29 CCOC(=O)C1CCCN(c2nc3ccccc3nc2C(C#N)C(=O)NCc2ccccc2)C1 (centres undefined)
 : 6.4	-0.7	-4.5	-7.3	2.7	-2.7
#4 CCOc1ccccc1CN(Cc1ccco1)S(=O)(=O)c1ccc(-n2cnnn2)c(OC)c1
 : 5.2	5.0	1.3	0.5	-11.1	4.1

The listing continues.
Every second line gives: CatS inh	CatL block	CatG inh	C1s inh	FXIIa inh mix	FXIa inh mix
#41 NC(=O)c1cc(-c2ccccc2)nc(N2CCOCC2)n1
 : 0.6	2.0	40.2	22.7	16.4	6.3
#42 CCCOc1ccc(C(=O)NCCCn2ccnc2)cc1
 : 14.6	24.2	0.9	-1.3	2.2	-1.2
#43 Cc1ccc(-c2nn3c(C)nnc3s2)cc1NCc1c(F)cccc1Cl
 : -28.3	-1.2	5.6	-2.4	-21.3	3.3
#44 O=C(Nc1ccc(Oc2ccccc2)cc1)C1CCCN(c2ncccn2)C1 (centres undefined)
 : 1.5	15.6	8.1	12.2	2.5	4.2
#45 CC1(C)CC(=O)C(C=NCCN2CCN(CCCCS(=O)(=O)O)CC2)=C(O)C1
 : 3.0	11.8	7.3	7.3	16.4	7.7
#46 CCc1nc(SCC(=O)Nc2cc(C)on2)n[nH]1
 : 17.6	7.9	-2.1	-25.7	-11.9	3.8
#47 CCOCCCNc1nc2c(c(=O)n(C)c(=O)n2C)n1CCCc1ccccc1
 : 6.3	9.6	-0.9	2.7	2.1	4.9
#48 CCCNc1nc2c(c(=O)n(C)c(=O)n2C)n1Cc1ccc(F)cc1
 : -2.0	nt	-1.5	-48.0	-5.2	-1.6
#49 O=C(CSc1ncn(-c2ccccc2)n1)Nc1nc2c(s1)CCCC2
 : -1.3	10.1	5.1	-12.0	-10.2	4.8
#50 CCOC(=O)c1sc(NC(=O)CSc2nc3c(cc2C#N)CCC3)c(C#N)c1C
 : -14.6	-3.0	8.0	6.1	8.0	9.4

(list continues)
Every second line gives: CatS inh	CatL block	CatG inh	C1s inh	FXIIa inh mix	FXIa inh mix
#51 O=C(Nc1cccc(C(F)(F)F)c1)C1CCCN(c2ncccn2)C1 (centres undefined)
 : -4.5	9.3	1.5	0.4	5.0	2.4
#52 O=C(CCn1nnc2ccccc2c1=O)N[C@H](C(=O)O)c1ccccc1
 : -0.9	3.2	8.3	-3.0	-1.8	0.0
#53 COc1cc(C2/C(=C(/O)c3ccc(F)cc3)C(=O)C(=O)N2CCCC(=O)O)ccc1O (centres undefined)
 : -3.6	7.3	-8.5	-32.3	-2.8	2.8
#54 CC(C)C(C(=O)N1CCOCC1)N1C(=O)c2ccccc2C1=O (centres undefined)
 : -8.5	nt	3.6	-6.1	1.4	-1.9
#55 Cc1nnc(NC(=O)C2CCCN(c3ncccn3)C2)s1 (centres undefined)
 : -0.9	-11.6	-0.1	-10.4	3.6	-1.7
#56 COc1ccc(C(=O)Nc2nnc(-c3ccccc3)o2)cc1OC
 : 11.4	5.8	-1.2	0.2	2.5	11.0
#57 CC(=O)c1ccc(NC(=O)C2CCCN2S(=O)(=O)c2ccc(F)cc2)cc1 (centres undefined)
 : 15.4	9.3	-1.1	-3.8	-17.0	7.7
#58 Cc1ccc(Cn2ccc(NC(=O)CCSc3nc(-c4ccco4)cc(C(F)(F)F)n3)n2)cc1
 : 10.9	2.9	-6.8	-10.8	10.4	3.0
#59 S=c1[nH]ncn1/N=C/c1ccc(Br)cc1
 : -3.1	nt	7.8	10.7	14.9	5.0
#60 O=C(CCSc1nc(-c2ccco2)cc(C(F)(F)F)n1)NCc1ccccn1
 : -2.1	0.0	11.6	14.3	0.9	7.7

The listing continues:
Every second line gives: CatS inh	CatL block	CatG inh	C1s inh	FXIIa inh mix	FXIa inh mix
#61 Cn1c(SCC(=O)Nc2nc3c(s2)CCCC3)nnc1-c1ccccc1
 : 13.7	9.1	-4.6	-13.7	6.3	0.8
#62 COc1ccc(C2NC(=O)NC(C)=C2C(=O)Nc2cc(C)ccc2C)cc1OC (centres undefined)
 : 8.6	nt	6.4	0.0	13.1	-1.9
#63 COc1ccccc1N1CCN(c2nc(C)nc3c2oc2ccccc23)CC1
 : 1.4	-0.3	13.0	11.4	-63.6	10.8
#64 O=C(NCCCn1ccnc1)c1ccncc1
 : 0.0	-0.2	0.9	-1.0	13.1	3.1
#65 COc1cc2c(cc1OC)CN(C(=O)COc1ccc(C#N)cc1)CC2
 : -4.1	-2.0	4.0	-2.8	-21.1	2.7
#66 CCOC(=O)c1sc(NC(=O)CSc2n[nH]c(-c3ccccc3)n2)c(C#N)c1C
 : 4.4	-2.5	1.2	4.6	1.3	7.5
#67 CCC(Oc1ccccc1)C(=O)Nc1cc(C)on1 (centres undefined)
 : 17.1	3.4	25.3	-10.7	10.3	10.2
#68 CN(C)S(=O)(=O)N1CCN(CC(=O)Nc2cc(Cl)ccc2Cl)CC1
 : 7.7	9.6	-3.8	3.1	-18.4	8.4
#69 C/C(=N\O)C(=O)NCCCn1ccnc1
 : -9.3	7.0	1.0	-70.5	-4.2	14.5
#70 CCCNc1nc2c(c(=O)n(C)c(=O)n2C)n1Cc1cccc(C)c1
 : -0.6	3.5	8.6	10.1	2.9	7.3
